HIV TAR-Tat: HIV-1 TAR-Tat binding disruption; z-score (test concentration not listed); HIV-1 TAR RNA, Tat peptide displacement FRET; hits give high values; 0.6% of 100,000 active;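 also: score is relative to mean and SD of negative controls; some compounds called inactive have numbers as strong as hits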
CDC25B CDK2 inh: human CDC25B-CDK2/CyclinA binding inhibition; P30305+P24941; HTRF CDC25B-CDK2/CyclinA binding, anti-His/anti-Flag; hits give high values; z-score (no concentration beside the values); 0.72% of 94,000 active;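 also: score is relative to mean and SD of negative controls; strong numbers were not always called active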
* = called active by the depositor; x = not tested or not shown.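 The calls were made as follows: active = z-score from 3 up in half or more of its runs; inactive = the rest.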 An unsorted share of the library. Share with any hit: about 0.94%.

SMILES	HIV TAR-Tat	CDC25B CDK2 inh
c1nc(N2CCC(N3CCCCC3)CC2)c2nc3n(c2n1)CCCC3	1.93	x
CC1CCCN(CCCNS(=O)(=O)c2ccc(-c3ccc(=O)[nH]n3)s2)C1 (configuration not stated)	-1.57	x
Cc1cc2n(n1)CCCN2C(=O)Nc1ccc(Cl)cc1	2.1	x
Cn1c(/C=C/c2cccc3ccccc23)c([N+](=O)[O-])c(=O)n(C)c1=O	2.72	2.41
O=C(N/N=C/c1ccccc1)/C(=C/c1ccccc1)NC(=O)c1ccccc1	x	-1.07
N#CC(=S)Nc1ccc(F)cc1	x	-1.35
CCOC(=O)/C(C#N)=C/c1ccc(-c2nccs2)cc1C(C)(C)C	x	-3.33
Cc1n[nH]c(=O)nc1NC1CCCCC1	3.2	-1.46
CCOC(=O)Cn1c2ccccc2n2nc(C)nc12	1.02	-0.21
Cc1ccc(C(=O)NCCCOC(C)C)cc1NC1=NC2CS(=O)(=O)CC2S1 (configuration not stated)	0.45	-0.85
CC1CCN(c2cc(NC(C)C)c3c4c(onc24)-c2ccccc2C3=O)CC1	2.26	-0.91
Brc1cccc(-c2nnc(-c3ccccc3)o2)c1	x	0.71
O=c1c(C(CN2CCOCC2)c2ccccc2)nc(-c2ccccc2)nn1CN1CCOCC1 (configuration not stated)	x	-0.51
Cc1cccc(Oc2coc3cc(OC(C)C(=O)OCC(C)C)ccc3c2=O)c1 (configuration not stated)	x	0.11
COC(=O)Nc1ccc(SCC(=O)c2ccc(Cl)cc2)cc1	-0.61	-2.43
Cc1oc2ncnc(OCC(=O)NCCN3CCCC3)c2c1C	-0.76	x
CCN1CCN(C(=O)c2cc(S(=O)(=O)N3CCCCC3)c[nH]2)CC1	1.15	x
O=C(Nc1noc2ccccc12)C1CCC1	1.48	x
COc1cccc2c(C)cc3nnc(SCC(=O)c4cccs4)n3c12	-1.79	-2.05
O=C(NCCN1CCOCC1)C1CCCN(c2ncnc3c2nc2n3CCCCC2)C1 (configuration not stated)	1.09	x
Cc1ccc(C)c(Cn2cccc2CNC(=O)NC2CCCC2)c1	0.85	x
O=S1(=O)N=C(c2cccc(Cl)c2)Nc2ccc(S(=O)(=O)N3CCCCC3)cc21	-0.39	x
CCOC(=O)N1CCN(C(=O)COc2ccc3c(c2)C(=O)CC(C)(C)O3)CC1	-0.08	-1.31
Cc1ccc(O)c(-n2nc3ccccc3n2)c1	1.42	-0.77
Cc1nc2nc(CNc3ccccc3Cl)[nH]n2c(=O)c1C	-0.67	-1.07

Shown in markdown: part of the list above
| molecule | HIV TAR-Tat | CDC25B CDK2 inh |
| --- | --- | --- |
| c1nc(N2CCC(N3CCCCC3)CC2)c2nc3n(c2n1)CCCC3 | 1.93 | x |
| CC1CCCN(CCCNS(=O)(=O)c2ccc(-c3ccc(=O)[nH]n3)s2)C1 (configuration not stated) | -1.57 | x |
| Cc1cc2n(n1)CCCN2C(=O)Nc1ccc(Cl)cc1 | 2.1 | x |
| Cn1c(/C=C/c2cccc3ccccc23)c([N+](=O)[O-])c(=O)n(C)c1=O | 2.72 | 2.41 |
| O=C(N/N=C/c1ccccc1)/C(=C/c1ccccc1)NC(=O)c1ccccc1 | x | -1.07 |
| N#CC(=S)Nc1ccc(F)cc1 | x | -1.35 |
| CCOC(=O)/C(C#N)=C/c1ccc(-c2nccs2)cc1C(C)(C)C | x | -3.33 |
| Cc1n[nH]c(=O)nc1NC1CCCCC1 | 3.2 | -1.46 |
| CCOC(=O)Cn1c2ccccc2n2nc(C)nc12 | 1.02 | -0.21 |
| Cc1ccc(C(=O)NCCCOC(C)C)cc1NC1=NC2CS(=O)(=O)CC2S1 (configuration not stated) | 0.45 | -0.85 |
| CC1CCN(c2cc(NC(C)C)c3c4c(onc24)-c2ccccc2C3=O)CC1 | 2.26 | -0.91 |
| Brc1cccc(-c2nnc(-c3ccccc3)o2)c1 | x | 0.71 |
| O=c1c(C(CN2CCOCC2)c2ccccc2)nc(-c2ccccc2)nn1CN1CCOCC1 (configuration not stated) | x | -0.51 |
| Cc1cccc(Oc2coc3cc(OC(C)C(=O)OCC(C)C)ccc3c2=O)c1 (configuration not stated) | x | 0.11 |
| COC(=O)Nc1ccc(SCC(=O)c2ccc(Cl)cc2)cc1 | -0.61 | -2.43 |
| Cc1oc2ncnc(OCC(=O)NCCN3CCCC3)c2c1C | -0.76 | x |
| CCN1CCN(C(=O)c2cc(S(=O)(=O)N3CCCCC3)c[nH]2)CC1 | 1.15 | x |

Continuation:
SMILES	HIV TAR-Tat	CDC25B CDK2 inh
Cn1nnc2c(NCc3c(F)cccc3F)ncnc21	0.67	x
Cc1cccc(N2C(=O)C3C4C=CC(C4)C3C2=O)n1 (configuration not stated)	x	-0.2
O=C(Cn1nnnc1-c1cccs1)NCC1CCCO1 (configuration not stated)	0.3	0.22
COC(=O)c1ccc(CSc2ccc3nnc(-c4cccc(F)c4)n3n2)o1	x	-1.53
Cc1ccc(C2CC(=O)NC3=C2C(=O)CC(c2ccccc2Cl)C3)cc1 (configuration not stated)	-0.99	0.76
CCC(C)NC(=O)CCS(=O)(=O)c1cc(Br)cc2c1N(C(C)=O)C(C)C2 (configuration not stated)	x	-0.82
Cc1nnc2sc(-c3ccccc3N)nn12	-0.3	2.92
Cn1ncc2c(Nc3ccc(F)cc3)nc(N3CCN(CCO)CC3)nc21	-0.29	x
CCOC(=O)c1snc2c(=O)[nH]cnc12	1.91	0.3
Cc1ncc(-c2ccc(S(=O)(=O)N(C)Cc3ccccc3)cc2)o1	1.44	x
Cc1oc(-c2cccc(Cl)c2)nc1CSc1nc2ncccc2o1	1	x
N#CC1=C2SCN(Cc3ccccc3)CN2C(=O)CC1c1ccc(Br)cc1 (configuration not stated)	-2.34	-0.18
C=CCOc1ccc(C2c3c(oc4ccc(F)cc4c3=O)C(=O)N2CCOC)cc1OC (configuration not stated)	0.53	-0.88
CC(C)COCC(CN(Cc1ccccc1)c1ccccc1)N1CCCC1 (configuration not stated)	x	-0.35
Cn1c(=O)oc2ccc(C(=O)Nc3nccs3)cc21	1.39	x
CCOC(=O)c1c(NC(=O)CSc2nc3c(c(=O)[nH]2)CCCC3)sc2c1CCCC2	1.04	-1.67
Nc1c(-c2ccc(Cl)cc2)cnc2ncnn12	1.79	-0.54
CC(C)NC(=O)CCCN1C(=O)CCn2nc(-c3cccn3C)cc21	0.26	x
O=C(c1cccs1)N1CCCCC1CCN1CCCC1 (configuration not stated)	-0.55	-1.85
Cc1ccc(-c2ccc(=O)n(CC(=O)c3ccccc3)n2)cc1S(=O)(=O)N1CCOCC1	0.17	-0.39
COc1ccc2c(c1)C=C(C(=O)NC1CCCC1)C=CO2	-1.34	0.05
CCN1CCSc2ccc(C(=O)NCC3CCCO3)cc21 (configuration not stated)	0.38	-2.11
Cc1ccc(C2c3c([nH][nH]c3=O)CC(C)(O)C2C(=O)OCc2ccccc2)cc1 (configuration not stated)	2.59	-2.7
CC(C)CCNC(=O)N1CCC(n2nnc3ccccc3c2=O)CC1	2.59	x
O=C(OCC1CC1)c1cnc(N2CCCCC2)nc1C(F)(F)F	x	-2.6

The list continues:
SMILES	HIV TAR-Tat	CDC25B CDK2 inh
NS(=O)(=O)C#Cc1ccccc1	1.85	-2.27
CCN1CCCC1CNC(=O)CCCn1nc(C)n2c(cc3sccc32)c1=O (configuration not stated)	0.64	0.64
CC(=O)N[C@@H](Cc1c[nH]c2ccccc12)C(N)=O	0.89	x
CCOC(=O)c1cnc(SC(CC)C(=O)NCc2cccs2)nc1N (configuration not stated)	0.58	x
N/C(=N\O)c1ccc(Oc2ccc(Cl)c(Cl)c2)c([N+](=O)[O-])c1	x	-0.56
CC1CCC(NS(=O)(=O)c2ccc3c(c2)CC(C)N3C(=O)C2CCC2)CC1 (configuration not stated)	-0.82	x
O=c1c(NC2CCCc3ccccc32)c(-c2ccccc2)c1=O (configuration not stated)	0.3	x
O=c1c2ccccc2cc(Br)c2sccc12	x	-1.25
O=C1Cc2cc(S(=O)(=O)Nc3ccc(F)c(Cl)c3)cc3c2N1CCC3	1.5	x
Cc1cc(C)c(-c2c(Nc3cccc(-c4ccno4)c3)c(=O)c2=O)cc1C	-0.97	x
COc1ccc(NC2=NS(=O)(=O)C(c3ccc(C(C)C)cc3)=C2C)cc1OC	0.47	-1.61
CCC1CCCCN1CCNC(=O)C1CCCN(S(=O)(=O)c2ccc3c(c2)oc(=O)n3C)C1 (configuration not stated)	-0.18	-2.3
CCCNc1c(-c2ccc(C(C)C)cc2)c(=O)c1=O	2.19	x
COc1ccc(-c2nn3c(-c4ccccc4OC)nnc3s2)cc1OC	2.51	-1.59
COc1ccccc1NC(=S)C(C#N)C(=O)N1CCOCC1 (configuration not stated)	x	-2.41
CN(c1ccccc1)S(=O)(=O)c1nnc(NC(=O)c2ccco2)s1	0.04	0.35
CCC(Sc1nc2ncccc2o1)C(=O)Nc1ccc(Br)cc1 (configuration not stated)	-1	x
O=[N+]([O-])c1ccc(-c2ccc(/C=N/Nc3ccccc3)o2)cc1	x	-2.11
COCCCNc1nc2c(c(=O)n(C)c(=O)n2C)n1Cc1ccc(Br)cc1	1.23	0.23
O=C(NCc1cccc(Br)c1)c1cc(-c2ccccn2)nc2ccccc12	0.68	x
COC(=O)CSc1nnc(CSc2ncccn2)n1C	1.97	-0.58
Cc1ccc(NC(=O)C2CC3CCCN3C23C(=O)Nc2ccccc23)cc1C (configuration not stated)	-0.72	x
CC(C)(C)c1cc(C(F)(F)F)[nH]n1	x	-0.88
C=CCSC1=C(C#N)C(c2ccc(O)cc2)CC(=O)N1 (configuration not stated)	2.13	-1.23
O=S(=O)(c1ccc(F)cc1)N1CCN(C/C=C/c2ccccc2)CC1	x	-0.58

Carrying on:
SMILES	HIV TAR-Tat	CDC25B CDK2 inh
CN1C(C(=O)N2CCCc3ccccc32)=CC(c2ccco2)=NS1(=O)=O	2.61	-3.3
O=C(Nc1nnc(SCc2nc3ccccc3[nH]c2=O)s1)c1cccc(Cl)c1	-2.86	x
O=C(CSc1nc(-c2ccccc2Cl)nc2cc(=O)[nH]n12)Nc1ccccc1	-0.72	x
COc1ccccc1-c1cc(C(=O)O)c2ccccc2n1	-3.65	-0.81
CCOC(=O)c1c(C)n(C)c2cc(-c3ccc(F)cc3)c(O)cc12	2.94	0.93
NC(=O)C1CCN(C(=O)c2cnn(-c3cccc(F)c3)c2-n2cccc2)CC1	-0.3	x
S=c1[nH]nc(Nc2ccccc2)n1-c1ccccc1	x	-1.41
O=C(NCc1cccnc1)c1nn2c(C(F)(F)F)cc(-c3ccc(F)cc3)nc2c1Cl	1.1	0.24
CCCN1CCN(C(=O)CCC(=O)N2CCCn3nc(C)cc32)CC1	2.08	x
CN1C(C(=O)NCc2ccc3c(c2)OCO3)=CC(c2ccc(F)cc2)=NS1(=O)=O	1.71	-2
O=C(NCc1ccccc1Cl)c1ccc(Cl)c(NC2=NC3CS(=O)(=O)CC3S2)c1 (configuration not stated)	1.25	x
COc1cc(NC(=O)N2CCCC2c2cccs2)cc(OC)c1 (configuration not stated)	0.56	-2.43
Cc1cc(S(=O)(=O)[C@H]2CS(=O)(=O)C[C@@H]2NCc2ccc(F)cc2)ccc1F	0.55	-0.97
CC1CN(c2ncnc3ccsc23)CC(C)O1 (configuration not stated)	x	-0.99
O=C(Nc1ccc(F)cc1)c1ccc(Cn2nc(N3CCN(c4ccc(F)cc4)CC3)ccc2=O)o1	0.64	x
CCOC(=O)c1cc(C)nc(Sc2ccc(C)cc2)c1C#N	x	-1.58
C=CCOc1cccc(-c2nc3c(c(=O)[nH]2)Cc2cc(Br)ccc2O3)c1	1	-0.32
CCCCNC(=O)CCCn1nc(C)c2sc3ccccc3c2c1=O	2.42	-0.45
O=S(=O)(CCN(CCc1ccccc1)S(=O)(=O)c1cccs1)N1CCNCC1	1.03	x
CCc1ccc(-c2[nH]nc3c2C(c2cccs2)C2=C(CC(C)(C)CC2=O)N3)cc1 (configuration not stated)	-0.6	-0.05
Cc1cc(C)cc(NC(=O)CCS(=O)(=O)c2ccc3c(c2)oc(=O)n3C)c1	1.07	x
Cc1noc(C(F)(F)F)c1C(=O)NNC(=O)c1cccc(C(F)(F)F)c1	x	-0.94
CCOc1ccc2c(c1)NC(c1cccnc1)=NC(c1ccc(Br)cc1)=N2	-0.92	-1.47
CNS(=O)(=O)c1ccc2c3c(cccc13)C(=O)N2	1.07	0.2
C=CCN1C(=O)NC2C1N(S(C)(=O)=O)CCN2S(C)(=O)=O (configuration not stated)	1.88	-1.71

Further entries follow:
SMILES	HIV TAR-Tat	CDC25B CDK2 inh
O=C(Cn1c(SCCOc2ccc(Cl)cc2)nc2ccccc21)NC1CC1	2.16	-0.81
Cn1c(=O)c(C(=O)Nc2cccnc2)c(O)c2ccccc21	0.99	x
CCOCCCNc1c2c(c(C#N)c3nc4ccccc4n13)CCC2	0.01	-1.41
CCOc1ccccc1-c1nn2c(-c3cccc(Cl)c3)nnc2s1	0.44	-1.29
CCCSc1ncc(Cl)c(C(=O)N(Cc2ccc(C(C)C)cc2)C2CCS(=O)(=O)C2)n1 (configuration not stated)	1.41	-1.04
C=CC1=C(C)/C(=C/c2[nH]c(Cc3[nH]c(/C=C4\NC(=O)C(C)=C4C=C)c(C)c3CCC(=O)O)c(CCC(=O)O)c2C)NC1=O	-3.26	x
COc1ccc(SCCC(=O)Nc2sc3c(c2C(N)=O)CCC3)cc1	-0.17	x
c1ccc2c(c1)CCCN2c1nc2ccccc2n2cnnc12	0.03	-0.73
CC(=O)NC1=NN(C(C)=O)C(c2ccc(F)cc2)S1 (configuration not stated)	2.21	-1.06
CCSc1nnc(NC(=O)C2CCCN(S(=O)(=O)c3cn(C(C)C)cn3)C2)s1 (configuration not stated)	2.62	x
COc1ccc(N(C(=O)C(C)C)S(=O)(=O)c2ccc3c(c2)oc(=O)n3C)cc1	0.19	-1.76
O=C(Nc1cccc(Cl)c1)c1nn2c(c1Cl)NC(c1cccs1)CC2C(F)(F)F (configuration not stated)	1.39	-2.03
COC(=O)c1sccc1N1C(=O)C=CC1=O	x	0.24
CC1c2cccn2CCN1C(=O)Nc1ccc2c(c1)OCCO2 (configuration not stated)	-2.88	x
O=S(=O)(Cc1ccc(Cl)cc1Cl)C1CCCCC1O (configuration not stated)	x	-2.37
CN/N=C/c1ncc(C(F)(F)F)cc1Cl	x	-0.85

Screening results deposited in PubChem BioAssay by Center for Chemical Genomics, University of Michigan.
